High-throughput results as filed in PubChem BioAssay.
2A firefly – Primary qHTS Assay for Foot and Mouth Disease Virus Antivirals against NCGC Sytravon and CBC Compound Libraries: Firefly Luciferase Signal; actives 0.23% (n = 120,000); Potency, µM (titrated, usually from 57.5 µM), for the others: at the highest dose signal change, negative = less light; AID 1745856, 2022; HEK cells with a luciferase reporter of 2A StopGo recoding; active = well fitted falling curve with a large enough effect; inconclusive = small, poorly fitted or top-dose-only effect; inactive = no such curve, though single readings can be large or run the other way; further: nearly all actives have a fitted effect of over 60% in size; overnight with compound
StopGo RLuc – Primary qHTS Assay for Foot and Mouth Disease Virus Antivirals against NCGC Sytravon and CBC Compound Libraries: Renilla Luciferase Signal; HEK cells with a luciferase reporter of 2A StopGo recoding; Potency, µM (titrated, usually from 57.5 µM), for the others: top-dose signal change, negative = less light; actives 0.32% (n = 120,000); active means well fitted falling curve with a large enough effect; inconclusive means small, poorly fitted or top-dose-only effect; inactive means no such curve, though single readings can be large or run the other way; further: nearly all actives have a fitted effect of over 55% in size; overnight with compound
* marks the source's active call; other numbers are inactive results; ? = inconclusive; [ ] = another dose, or the depositor's remark. On the % scale 0 is the no-effect control and ±100 the full control effect; potency means the concentration at half of the fitted maximal effect.

SMILES	2A firefly	StopGo RLuc
CCS(=O)(=O)N1CCc2cc(C(=O)N3CCN(c4ccccc4)CC3)ccc21	51%[activator]	14%
CCOc1ccc(-n2c(=O)c3c4c(sc3n(CC(=O)NC(C)CC)c2=O)CCCCC4)cc1 (stereo not given)	-2%	1%
O=C(/C=C/c1ccc(F)cc1)c1ccc(O)cc1	230%[activator]	22%
COc1ccc(C2(CNC(=O)c3ccc(Cl)cc3Cl)CCOCC2)cc1	32%[activator]	86%[activator]
COc1ccc(NC(=O)c2cnc[nH]2)cc1	279%[activator]	18%
CN(C(=O)CN1C(=O)CCSc2ccc(S(=O)(=O)N3CCCC3)cc21)c1ccccc1	-14%	-7%
CC(C)=CC(=O)Nc1ccc2c(c1)Cc1ccccc1-2	191%[activator]	15%
COc1ccc(C2CC(=O)Nc3c2c(C)nn3-c2ncccn2)cc1 (stereo not given)	37%[activator]	0%
N#CC1(NC(=O)c2csc(-c3cccc(Cl)c3)n2)CCC1	18%	7%
Cn1c(CN2CCOCC2)nnc1SCc1ccccc1	-15%	-20%
COc1ccc(N2CCN(C(CNC(=O)C(=O)NCc3ccc(C)cc3)c3cccnc3)CC2)cc1 (stereo not given)	-11%	-12%
O=C(Cn1nc2c(-c3nc(-c4cccc(F)c4)no3)cccn2c1=O)NCc1ccc(F)cc1	161%[activator]	0%
N#Cc1ccc(NCCNC(=O)c2nccnc2N)nc1	17%	19%
Cc1cccc(NC(=O)c2cc(-c3ccc4c(c3)OCCO4)on2)c1	10%	?
O=C(Cc1n[nH]c(=O)c2ccccc12)N1CCN(c2ccccc2F)CC1	-3%	-14%
CCN(CC)S(=O)(=O)c1ccc(N(C)CCOc2ccc(Br)cc2)nc1	?	?
CCC12CN(CC#N)CC(CC)(CN(CC#N)C1)C2=O	13%	3%
COCCCNC(=O)CSCc1nc(-c2ccccc2C)oc1C	12%	9%
CC(C)c1cc(N2CCOCC2)n2c(nc3ccccc32)c1C#N	12%	6%
c1ccc2c(NC34CC5CC(CC(C5)C3)C4)nc(N3CCCC3)nc2c1	9%	-3%
COCCCNC(=O)c1sc2nc(C)c(C(=O)Nc3ccc(C)cc3C)c(-c3ccc(Cl)cc3)c2c1N	-4%	15%
COc1ccc(NC(=O)Cc2cc(OC)c(OC)c(OC)c2)cc1NS(C)(=O)=O	7%	2%
COc1ccc(C(=O)CC2(O)C(=O)N(Cc3ccccc3)c3ccc(Br)cc32)cc1 (stereo not given)	14%	73%[activator]
CN(Cc1cccc(F)c1)C(=O)NC1CCCC(C(F)(F)F)C1 (stereo not given)	28%	14%
Cc1ccc(-n2nnc(C(=O)NC(C)C)c2N)cc1	131%[activator]	-3%

Record cards, as listed above. Values in the order: 2A firefly | StopGo RLuc
Record of COc1ccc(C2(CNC(=O)c3ccc(Cl)cc3Cl)CCOCC2)cc1 : 32%[activator] | 86%[activator]
Record of O=C(/C=C/c1ccc(F)cc1)c1ccc(O)cc1 : 230%[activator] | 22%
Record of O=C(Cc1n[nH]c(=O)c2ccccc12)N1CCN(c2ccccc2F)CC1 : -3% | -14%

New compounds follow.
SMILES	2A firefly	StopGo RLuc
N#Cc1ccc(NC(=O)NCCNc2ccccn2)cc1	-7%	68%[activator]
Cc1cc(C)cc(NS(=O)(=O)c2ccc3c(c2)NC(=O)C(C)S3)c1 (stereo not given)	-10%	233%[activator]
CCOc1ccccc1CNC(=O)c1ccc(-n2c(C)cc3c2CCC(C)C3)cc1 (stereo not given)	5%	-10%
Cc1cc(=O)n(Cc2c(F)cccc2Cl)c2c1c(C)nn2C	-11%	-10%
COc1cccc2c1ccn2CC(=O)NCC1CCC(C(=O)O)CC1 (stereo not given)	5%	-9%
Cc1cccc(Nc2nn3c(=O)c4cc5c(cc4nc3s2)OCO5)c1	10%	-11%
CC(C)Oc1ccc(C(=O)Nc2nonc2-c2ccc(OC(C)C)cc2)cc1	-15%	-6%
COc1ccccc1OC(=O)COc1ccc(C)cc1Br	148%[activator]	5%
COc1ccc2nc(N(Cc3cccnc3)C(=O)c3ccc(Cl)cc3)sc2c1	-18%	-4%
O=C(Cn1cnc2ccc(Cl)cc2c1=O)N(C1CC1)C1CCS(=O)(=O)C1 (stereo not given)	-5%	-7%
COc1ccc(C(=O)c2cn(Cc3ccccc3F)c3cc4c(cc3c2=O)OCCO4)cc1OC	-9%	-1%
Cc1cc2ccccc2n1CC(=O)N1CCC(C(N)=O)CC1	1%	-6%
CCOc1ccc(S(=O)(=O)[C@H]2CS(=O)(=O)C[C@@H]2N2CCN(c3ccc(F)cc3)CC2)cc1	-5%	-12%
CN(/C=C/C(=O)C(F)(F)F)c1ccccc1C(=O)O	7%	7%
Cc1ccccc1Cn1c(CN2CCC(C(=O)NCCN(C)C)CC2)cc2ccccc21	-22%	-4%
Cc1ccc2c(c1)C(c1ccccc1)N(C(=O)c1ccccc1F)CC(=O)N2 (stereo not given)	31%[activator]	245%[activator]
Cc1oc(-c2ccccc2)nc1CC(=O)Nc1cc(F)ccc1F	20%	0%
COc1ccc(C(NC(=O)Cc2n[nH]c(=O)c3ccccc23)c2ccccc2)cc1 (stereo not given)	-2%	2%
Cc1ccc(S(=O)(=O)c2cn(Cc3cccc(C)c3)c3cc4c(cc3c2=O)OCO4)cc1	-9%	51%[activator]
CC(=O)c1cc(-c2ccc(F)cc2)n(CC(=O)NC(C)c2ccccc2)c1C (stereo not given)	-15%	-3%
CCOC(=O)c1c(C)n(-c2ccc(OC)cc2)c2ccc(OC(=O)COc3ccccc3)cc12	-7%	0%
O=C(c1cn(CCOc2ccc(F)cc2)c2ccccc12)C1CC1	130%[activator]	5%
Cc1nc(S(=O)(=O)N2CCN(c3cccc(Cl)c3)CC2)cn1C	-12%	-6%
Cc1c(Cl)cccc1NC(=O)COC(=O)c1nn(C)c(=O)c2ccccc12	3%	-4%
CCNc1oc(/C=C/c2ccc(OC)c(OC)c2)nc1C#N	41%[activator]	11%

(continued)
SMILES	2A firefly	StopGo RLuc
Cc1c(NC(=O)C(C)C)cccc1-c1nc2cc(Cl)ccc2o1	110%[activator]	5%
CCCCCCn1nc(C(=O)Nc2ccc(OC)c(OC)c2)c2ccccc2c1=O	0%	16%
COc1cc(Cl)c(NS(=O)(=O)c2ccc3[nH]c(=O)ccc3c2)c(OC)c1	15%	28%
COc1ccc(CCNC(=O)c2ccc3c(c2)N(Cc2cc(C)ccc2C)C(=O)c2ccccc2S3=O)cc1OC (stereo not given)	-12%	-11%
Cc1ccc(-c2nc3ccccn3c2Nc2ccc3c(c2)OCO3)o1	-106%	?
CC(C)NC(=O)NC(=O)CN(C)C1CCCCC1	-2%	-5%
Cc1ccc(C)c(Cn2c(=O)n(CC3CCC(C(=O)N4CCOCC4)CC3)c(=O)c3sccc32)c1 (stereo not given)	-5%	-9%
COc1ccc(Nc2nc(N)c(C(=O)c3cc(C)c(C)cc3C)s2)cc1	34%[activator]	41%[activator]
O=C(Nc1ccc(F)cc1)c1ccc(-n2cnnc2)cc1	23%	9%
CC(C)(C)OC(=O)N1CCC(c2c(C(=O)N3CCN(c4ncccn4)CC3)cnn2-c2ccc(F)cc2)CC1	-15%	-10%
Cc1ccc(NS(=O)(=O)c2ccc(-c3coc(C)n3)cc2)c(Cl)c1	-6%	3%
CCOc1ccc(C(=O)N(Cc2cc(OC)c(OC)c(OC)c2)c2ccccn2)cc1	0%	-4%
O=C(C1CCC(Cn2c(=O)c3sccc3n(Cc3ccc(Cl)cc3)c2=O)CC1)N1CCCC1 (stereo not given)	-21%	-15%
COC(=O)c1ccc(NC(=O)Cn2cnc3c2c(=O)n(C)c(=O)n3C)cc1	13%	-2%
COc1ccc(CN(C)S(=O)(=O)c2nnc(NC(=O)C(C)C)s2)cc1OC	?	?
O=C(NCCCNC(=O)c1cc2ccccc2[nH]1)c1ccc(F)cc1	11%	83%[activator]
CC(NC(=O)CSc1ccc2c(c1)OCCCO2)c1cccc2ccccc12 (stereo not given)	?	?
CCCCc1cc(=O)oc2cc(OCC(=O)OC)c(Cl)cc12	-2%	-3%
CC(C)c1nc2cc(NC(=O)Cc3ccc([N+](=O)[O-])cc3)ccc2o1	114%[activator]	-4%
CC(C)c1cc(C(=O)N2CCN(C(=O)c3ccccc3)CC2)c2ccccc2n1	12%	1%
CC(CNC(=O)c1sc2ncccc2c1-n1cccc1)c1ccccc1 (stereo not given)	-2%	30%[activator]
Cc1sc(NC(=O)c2cc3ccccc3o2)c(C#N)c1C	181%[activator]	6%
N#Cc1nc(-c2ccc(F)cc2)oc1N1CCN(Cc2ccccc2)CC1	43%[activator]	0%
COC(=O)C1CN(Cc2ccccc2)CCS(=O)(=O)N1Cc1ccc(C)cc1 (stereo not given)	21%	238%[activator]
CCCOc1ccc(C2C(=O)N(C3CCCCCC3)CC(=O)N2CCC)cc1OC (stereo not given)	-8%	-7%

Given with two lines to a compound: two of the compounds above
Below each compound: 2A firefly | StopGo RLuc
COc1ccc(C(NC(=O)Cc2n[nH]c(=O)c3ccccc23)c2ccccc2)cc1 (stereo not given)
  -2% | 2%
Cc1ccccc1Cn1c(CN2CCC(C(=O)NCCN(C)C)CC2)cc2ccccc21
  -22% | -4%

Ordered by molar mass (ascending): some entries from above.
SMILES	2A firefly	StopGo RLuc
Cc1sc(NC(=O)c2cc3ccccc3o2)c(C#N)c1C	181%[activator]	6%
CCCCc1cc(=O)oc2cc(OCC(=O)OC)c(Cl)cc12	-2%	-3%
Cc1ccc(-c2nc3ccccn3c2Nc2ccc3c(c2)OCO3)o1	-106%	?
CC(C)c1nc2cc(NC(=O)Cc3ccc([N+](=O)[O-])cc3)ccc2o1	114%[activator]	-4%
COc1ccc(CCNC(=O)c2ccc3c(c2)N(Cc2cc(C)ccc2C)C(=O)c2ccccc2S3=O)cc1OC (stereo not given)	-12%	-11%

More compounds follow.
SMILES	2A firefly	StopGo RLuc
CC(Oc1ccc2ccc(=O)oc2c1)C(=O)NCCc1ccc(F)cc1 (stereo not given)	-10%	6%
O=C(c1ccccc1Br)N(Cc1cccc2[nH]ccc12)C1CC1	-1%	202%[activator]
CCCCOCCCNC(=O)CCC(=O)NC(C)(C)C	25%	-8%
COCc1cc(C)nc2sc3c(=O)n(-c4cc(C)ccc4C)nnc3c12	-17%	-14%
COc1cccc(C(=O)Nc2c(NCC3CCCCC3)c3ccccc3oc2=O)c1	-9%	-7%
Cc1ccc(C(=O)Nc2nc(-c3nnn(-c4cccc(C(F)(F)F)c4)c3C)ns2)cc1	-3%	-10%
CCN(C(=O)c1cc(S(=O)(=O)N2CCc3ccccc32)cn1C)c1cccc(C)c1	-17%	52%[activator]
Cc1cc(F)ccc1NC(=O)c1ccc2nc(Cc3ccccc3)oc2c1	-13%	-18%
O=C(Nc1cccc2cccnc12)c1ccccc1[N+](=O)[O-]	0%	-2%
CNC(=O)Cn1nc(-c2cccc([N+](=O)[O-])c2)c2ccccc2c1=O	1%	-13%
N#Cc1nc(-c2ccc(F)cc2)oc1NCCCN1CCOCC1	63%[activator]	-7%
Cc1c(C#N)c(N)nc2c3c(sc12)NC(=O)CC3c1c(F)cccc1Cl (stereo not given)	22%	78%[activator]
Cc1cc2c(c(=O)n1CCN(C)C)C(c1cccc(Br)c1)C(C#N)=C(N)O2 (stereo not given)	-12%	26%
O=C(CSc1nc2ccccc2s1)c1ccc(C2CCCCC2)cc1	12%	-1%
O=C(NC1CCCCNC1=O)c1ccc2c(c1)OCCCO2 (stereo not given)	145%[activator]	-1%
COc1cccc(-n2c(SCC(=O)Nc3cc(C)ccc3C)nc3c(oc4ccccc43)c2=O)c1	-25%	-22%
N#Cc1nc(-c2cccc3ccccc23)oc1NCc1ccc2c(c1)OCO2	11%	91%[activator]
Cn1c(=O)n(Cc2cccc(Br)c2)c(=O)c2c1ncn2Cc1ccccc1	-9%	4%
N#Cc1ccc(CSc2ccccc2C(=O)Nc2ccc3c(c2)OCCCO3)cc1	31%[activator]	15%
COCCNC(=O)c1cc(-c2ccccn2)nc2ccccc12	2%	-3%
CC(NC(=O)C(C#N)C(=O)c1ccc(F)cc1)c1ccccc1 (stereo not given)	1%	12%
CC(C)CNC(=O)CN1CCN(c2nc(-c3cccs3)nc3ccccc23)CC1	-12%	-13%
Cn1cc(C(=O)NCc2ccccc2)c(=O)c2cc(S(=O)(=O)N3CCCCCC3)ccc21	0%	8%
CCCCn1c(N2CCN(Cc3ccccc3F)CC2)nc2c1c(=O)[nH]c(=O)n2C	-10%	0%
Cc1cc(C)cc(C(=O)NC(C)C(=O)N2CCC3(CC2)NCCc2[nH]cnc23)c1 (stereo not given)	-1%	-9%
CCOC(=O)c1ccc(NC(=O)CCc2c(C)nc3cc(-c4ccc(OC)cc4OC)nn3c2C)cc1	0%	-12%
CN(C)c1ccc(NC(=O)Cn2c(SCc3ccccc3F)nc3cccnc32)cc1	105%[activator]	2%
Cc1cc(C(C)(C)C)cc(C)c1CCNC(=O)c1nccnc1N	?	?
